Screening data from PubChem BioAssay.
Cruzain Triton: blocks cruzain activity in presence of Triton detergent. P25779. purified cruzain, Z-FR-AMC fluorescence, 0.01% Triton. Potency, µM, without a hit: max response, negative = inhibition, usual class: inhibitors. 0.43% of 200,000 active. AID 1478;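 further: plate controls were neutral wells for no effect and buffer without enzyme for full effect; nearly all actives have a fitted effect of over 40% in size; top concentration of the series not given in the record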
Target sequence (P25779 123-467 limits assumed): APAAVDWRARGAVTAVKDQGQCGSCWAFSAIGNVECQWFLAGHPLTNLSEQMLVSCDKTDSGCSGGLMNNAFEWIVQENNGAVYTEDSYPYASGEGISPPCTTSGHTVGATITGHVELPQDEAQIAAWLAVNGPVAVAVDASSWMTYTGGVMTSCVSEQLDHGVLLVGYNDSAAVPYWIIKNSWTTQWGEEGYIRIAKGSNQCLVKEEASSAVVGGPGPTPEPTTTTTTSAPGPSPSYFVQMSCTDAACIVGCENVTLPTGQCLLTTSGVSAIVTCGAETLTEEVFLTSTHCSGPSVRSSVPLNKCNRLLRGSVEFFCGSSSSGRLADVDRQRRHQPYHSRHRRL
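15 min RT preincubation of 1.5 nM cruzain with compound, then 2 uM Z-FR-AMC added; kinetic AMC fluorescence, 60 s delta. Triton X-100 0.01%, pH 5.5.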
Marburg entry inh: blocks Marburg virus binding to or entry into cells; Potency, µM (series often up to 37.8 µM), without a hit: top-dose activity change, negative = inhibition, most hits filed as inhibitors; AID 540276; 1.8% of 300,000 active; Marburg virus pseudotyped entry inhibition, cell reporter; control for the full effect not named in the record; about a third of the inactives were read at about 46 µM; active = well fitted inhibition curve with a large enough effect; inconclusive = small, poorly fitted or top-dose-only effect, or effect the other way; inactive = flat fitted curve, though single readings scatter; tested in HEK293 cells; about a fifth of its hits are not listed in these tables; further: on the % scale 0 is the no-effect control and ±100 the full control effect; luciferase read-out
SARS PLpro yeast: SARS-CoV PLP inhibition in yeast | Potency, µM (doses to about 32.9 µM), for the others: top-dose activity, positive = growth rescue | 0.19% of 330,000 active | S. cerevisiae expressing SARS-CoV PLpro, growth rescue; control for the full effect not named in the record; active means well fitted rising curve with a large enough effect; inconclusive means small, poorly fitted or top-dose-only effect; inactive means no such curve, though single readings can be large or run the other way; further: 0% is about no effect; nearly all actives have a fitted effect of over 55% in size; growth read by luminescence after 48 h
NS1 function inh: influenza NS1 inhibition; S. cerevisiae slowed by influenza A NS1, growth recovery by OD600; Potency, µM (highest dose often 46.1 µM), inactives show top-dose activity, positive = more growth; 0.4% of 270,000 active; active means well fitted rising curve with a large enough effect; inconclusive means small, poorly fitted or top-dose-only effect; inactive means no such curve, though single readings can be large or run the other way; further: nearly all actives have a fitted effect of over 50% in size
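In this qHTS, NS1 from influenza A is expressed in budding yeast, where it slows growth. Cells are switched from glucose to 2% galactose medium (pH 6.0, -URA), treated with compound, and growth recovery is read at OD600.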
Cruzain inh noDet: cruzain (T. cruzi) inhibition without detergent | 2.3% of 200,000 active | AID 1476 | Potency, µM, inactives show max response, negative = inhibition, most hits filed as inhibitors | purified cruzain, Z-FR-AMC fluorescence, no detergent | P25779;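 further: plate controls were enzyme without inhibitor for no effect and buffer without enzyme for full effect; nearly all actives have a fitted effect of over 40% in size; top concentration of the series not given in the record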
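Purified cruzain at 1.5 nM, pre-incubated 15 min with compound at room temperature in 100 mM sodium acetate pH 5.5, 5 mM DTT, 0.00005% Triton X-100. Reaction started with 2 uM Z-FR-AMC; AMC fluorescence increase over 60 s gives rate.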
LASV entry inh: blocks Lassa virus binding to or entry into cells | 1.2% of 300,000 active | Potency, µM (series often up to 37.9 µM), for the others: at the top dose activity change, negative = inhibition, hits mostly inhibitors | Lassa virus pseudotype entry inhibition, cell reporter; control for the full effect not named in the record; active means well fitted inhibition curve with a large enough effect; inconclusive means small, poorly fitted or top-dose-only effect, or effect the other way; inactive means flat fitted curve, though single readings scatter; tested in HEK293 cells; further: on the % scale 0 is the no-effect control and ±100 the full control effect; nearly all actives have a fitted effect of over 50% in size; luciferase read-out
RE007 growth inh: less growth of the S. pombe RE007 Vpr strain; S. pombe RE007 Vpr strain, BacTiter-Glo ATP luminescence, 24 h; control for the full effect not named in the record; Potency, µM (doses to about 92.2 µM), inactives show at the top dose activity change, negative = less growth; 0.21% of 360,000 active; active = well fitted falling curve with a large enough effect; inconclusive = small, poorly fitted or top-dose-only effect; inactive = no such curve, though single readings can be large or run the other way;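 further: on the % scale 0 is the no-effect control and ±100 the full control effect; nearly all actives have a fitted effect of over 50% in size; the assay follows cell death caused by Vpr and the record does not say whether a fall means rescue or toxicity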
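Fission yeast strain RE007, carrying one chromosomally integrated HIV-1 vpr copy, was seeded at OD 0.01 in PMG+AL medium with 23 nL pinned compound. After 24 h at 30 °C and 99% humidity, viability was read by BacTiter-Glo luminescence.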
StopGo reporter: FMDV 2A StopGo reporter, luciferase signal; human cells with a luciferase reporter of 2A StopGo recoding; control for the full effect not named in the record; Potency, µM (doses to about 57.9 µM), without a hit: at the highest dose signal change, negative = less light; 1.2% of 410,000 active; AID 1159524; active = well fitted falling curve with a large enough effect; inconclusive = small, poorly fitted or top-dose-only effect; inactive = no such curve, though single readings can be large or run the other way; tested in HEK293T cells; further: on the % scale 0 is the no-effect control and ±100 the full control effect; nearly all actives have a fitted effect of over 45% in size; luciferase light after 4 h
* marks the source's active call; other numbers are inactive results; ? = inconclusive; . = no result given; & = joins results of further samples; [ ] = remark or other dose. Unless noted, the call rests on the fitted dose curve; in most records, active means well fitted curve in the direction sought with a large enough effect; inconclusive means small, poorly fitted or top-dose-only effect, or another doubt; inactive means no such curve, though single readings can be large; an effect the other way counts as inactive or inconclusive. Potency means the concentration at half of the fitted maximal effect.

SMILES	Cruzain Triton	Marburg entry inh	SARS PLpro yeast	NS1 function inh	Cruzain inh noDet	LASV entry inh	RE007 growth inh	StopGo reporter
COc1cccc(NC(=O)c2ccc(-n3cccn3)nc2)c1	-3.6%	-1%	-8%	-17%	-2%	?	-16%	16%
CCCCn1c(SCc2cccc([N+](=O)[O-])c2)nc2ccsc2c1=O	-7.8%	-36%	1%	1%	-8%	?	49%	?
O=C(CN1C(=O)COc2ccc(S(=O)(=O)N3CCCC3)cc21)NCc1ccccn1	.	24%[46.1 µM]	-5%	0%	.	3%	-6%	-20%
CC1=C(C(=O)OCc2ccccc2)C(c2ccc([N+](=O)[O-])cc2)NC(=O)N1 (centres undefined)	.	.	-7%	9%	.	.	-9%	-26%
CCC(OC(C)=O)c1cc2c(cc1[N+](=O)[O-])OCCO2 (centres undefined)	.	.	0%	1%	.	.	-7%	-23%
COc1ccc(NC(=O)C2C3C=CC4(CN(Cc5cccnc5)C(=O)C24)O3)c(OC)c1 (centres undefined)	2.9%	?	3%	3%	-3%	1%	-11%	-16%
CCCc1nc2ccc([N+](=O)[O-])cc2[nH]1	.	-1%[46.1 µM]	-1%	-4%	.	8%	0%	-6%
O=C(Nc1cccc(S(=O)(=O)NC2=NCCC2)c1)C1CC(=O)N(c2ccc3c(c2)OCCO3)C1 (centres undefined)	.	12%[46.1 µM]	0%	.	.	.	4%	9%
CN(C)S(=O)(=O)c1cccc(C(=O)OCC(=O)NCc2ccccc2)c1	4.5%	21%	-6%	6%	-18%	1%	-22%	-9%
Cc1c(C(=O)N(C)C)sc2c1c(=O)n(-c1ccc(Cl)c(Cl)c1)c(=O)n2CC(=O)N1CCCCC1C (centres undefined)	1.0%	.	.	.	?	?	.	-12%
CCCCn1c(N)c(N(CCOC)C(=O)c2oc3ccc(OCC)cc3c2C)c(=O)[nH]c1=O	.	-2%	-4%	.	.	-6%	-23%	-17%
C#CC1(OC(=O)c2ccccc2)CC(C)N(C)CC1C (centres undefined)	.	.	-4%	2%	.	.	-18%	0%
CSc1nc(N)nc(SCC(=O)C23CC4CC(CC(C4)C2)C3)c1C#N	-4.3%	21µM*	-22%	13%	-16%	-6%	5%	?
Cc1c(N=Cc2ccc(Cl)o2)c(=O)n(-c2ccccc2)n1C	3.1%	12%	-5%	-18%	3%	-1%	2%	20%
Cc1ccc(OCC(=O)N2CCN(C3=NS(=O)(=O)c4ccccc43)CC2)cc1	2.9%	-6%	2%	-6%	-1%	-3%	13%	6%
O=C(/C(=C(\O)c1ccccc1)c1nc2ccccc2[nH]1)c1ccccc1	.	?	-4%	-8%	.	?	-26%	0%
CCCNS(=O)(=O)c1ccc(OCC(=O)NCCC2=CCCCC2)cc1	1.1%	-23%	4%	3%	1%	-20%	2%	0%
Cc1cccc(CCNC(=O)c2cc(S(=O)(=O)N3CCOCC3)cn2C)c1	.	.	12%	7%	.	.	11%	0%
Cc1nn(-c2ccccc2)nc1C(=O)Oc1cc(C(F)(F)F)nn1-c1ccccc1	.	.	6%	?	.	.	8%	15%
Cc1cc(C)c(S(=O)(=O)c2ccccc2)c(OC(=O)c2c(F)cccc2F)n1	.	-6%[46.1 µM]	-1%	.	.	-19%	-1%	-11%
O=C(NCc1ccc(Cl)c(Cl)c1)C1CCCC1	.	5%[46.1 µM]	.	.	.	0%	12%	28%
CCN(CCCNC(=O)C1CCN(S(=O)(=O)c2cnc[nH]2)CC1)c1cccc(C)c1	8.7%	1%	7%	?	5%	3%	5%	-17%
O=c1c2[nH]c3ccc(F)cc3c2nc2n1CCS2	.	?	1%	.	.	6%	7%	0%
O=C(NC1CCN(Cc2ccccc2)CC1)c1cccc(OC(F)F)c1	.	?	-3%	-7%	.	-21%[46.1 µM]	-1%	-14%
O=C(CN(Cc1ccccc1)C(=O)c1csnn1)NCCc1ccccc1	.	-23%[46.1 µM]	-2%	3%	.	.	-9%	12%

Continuation:
SMILES	Cruzain Triton	Marburg entry inh	SARS PLpro yeast	NS1 function inh	Cruzain inh noDet	LASV entry inh	RE007 growth inh	StopGo reporter
CC1CC(C)CN(C(=O)COC(=O)COc2ccc(C#N)cc2)C1 (centres undefined)	.	-3%	1%	.	.	-1%	7%	-10%
COc1ccc(-c2cc(C(F)(F)F)n3nc(C(=O)O)c(Cl)c3n2)cc1OC	-0.4%	.	.	.	4%	12%[46.1 µM]	.	-2%
CN(C)c1ccc(CNC(=O)c2cnc3sc(N4CCCCCC4)nn3c2=O)cc1	7.0%	.	.	.	16%	?	.	-5%
Cc1cc(/C=C2/NC(=O)NC2=O)c(C)n1-c1sc2c(c1C#N)CCCC2	-15%	?	0%	?	1%	4.5µM*	8%	-17%
C=CCc1cc(OC)ccc1OCCON1C(=O)CCC1=O	2.7%	?	2%	-8%	4%	16%	22%	3%
COCCN(CC(=O)Nc1cccc(C)c1C)C(=O)c1cc2ccccc2cc1OC	.	?	-2%	.	.	?	19%	0%
Cc1cc2cc(CN3C(=O)c4ccccc4C3=O)ccc2n1C	-0.9%	7%&7%	9%	?	-25%	4%	3%	0%
CNC(=O)COC(=O)/C=C/c1cn(-c2ccccc2)nc1-c1ccc2c(c1)OCCO2	.	?	-1%	-7%	.	0%	-6%	-10%
COc1ccc(NC(=O)CC(c2ccc(F)cc2)c2ccc(OC)cc2)cc1 (centres undefined)	-2.3%	?	24%	4%	-2%	-14%	6%	-3%
CCN=C1SC(CC(=O)NC2CCCCC2)C(=O)N1CC (centres undefined)	1.3%	?	?	0%	4%	-22%	-8%	-8%
O=C(CN(c1ccc(F)cc1)S(=O)(=O)c1ccccc1)Nc1ccccc1C(=O)O	.	-4%[46.1 µM]	1%	5%	.	-1%	-4%	0%
CCCCCCOC(=O)CC1CC(C(C)=O)C1(C)C (centres undefined)	.	22%	.	.	.	3%	-19%	45%[activator]
CC(=O)Nc1ccc(Nc2nc(-c3sc(NC(C)=O)nc3C)cs2)cc1	.	3.2µM*	2%	9%	.	?	0%	-19%
S=C1NCN(Cc2cccnc2)CN1Cc1ccccc1	.	-2%	1%	-1%	.	-10%	-15%	-7%
O=C(NCCCO)c1cc([N+](=O)[O-])cc2c1C=Cc1ccccc1O2	.	-7%[46.1 µM]	1%	.	.	?	-7%	-12%
COCCNS(=O)(=O)c1cc(C)c(C)cc1C	0.2%	?	-1%	4%	-4%	3%	8%	93%[activator]
COc1ccc(NC(=O)CCCn2c(=O)oc3ccccc32)cc1Cl	-3.9%	?	-6%	-2%	-9%	10%	-7%	75%[activator]
CCC/C=N/NC(=O)c1cc(-c2ccccc2)nc2ccccc12	-5.7%	14%	19%	-4%	-1%	8%	7%	-16%
COc1cc(C(=O)N/N=C/c2ccc(OC(=O)c3cccc(C)c3)c(OC)c2)ccc1O	.	.	2%	5%	.	.	4%	-13%
CCCCCCCCn1cnc2c(N)c(C)c(C)cc21	-9.6%	?	-4%	-95%	20%	?	?	-28%
COCCN(C(=O)CSc1nnc(-c2ccc(Cl)cc2)o1)c1c(N)n(CC(C)C)c(=O)[nH]c1=O	.	-5%	-3%	-1%	.	3%	3%	-12%
CCOC(=O)CSc1nc2ccc(NC(=O)c3ccccc3)cc2s1	-10%	32%[46.1 µM]	.	.	-8%	22%[46.1 µM]	.	16%
C=CCn1c(SCC(=O)NC(=O)NC)nnc1C1CCCCC1	.	6%[46.1 µM]	0%	.	.	-9%	1%	12%
O=C(N/C(=C/c1ccco1)C(=O)N1CCCCCC1)c1ccccc1	.	-6%[46.1 µM]	-3%	22%	.	7%[46.1 µM]	-20%	-2%
Cc1cccc(N2CCN(C(=O)CCCSc3nc4ccccc4[nH]3)CC2)c1C	-9.7%	?	-23%	-13%	7%	-22%[14.3 µM]	2%	35µM*

More records follow.
SMILES	Cruzain Triton	Marburg entry inh	SARS PLpro yeast	NS1 function inh	Cruzain inh noDet	LASV entry inh	RE007 growth inh	StopGo reporter
CC(C)N1CCN(c2ccc(O)cc2)CC1	-4.6%	-28%	-5%	15%	6%	-1%	.	-15%
CC(=O)C(C(C)=O)C1(O)C(=O)c2ccccc2C1=O	-9.0%	-5%	-2%	3%	-2%	?	3%	12%
O=c1oc(-c2cccnc2)nc2ccccc12	-3.0%	-28%	12%	-8%	-6%	2%	?	2%
COc1ccc(C(=O)N2CCC(O)(c3ccc(Cl)cc3)CC2)cc1OC	.	.	0%	-7%	.	.	0%	-14%
Cc1cccc(-n2c(=S)[nH]c3sc4c(c3c2=O)CCc2ccccc2-4)c1	.	13%[46.1 µM]	3%	.	.	?	-5%	?
COc1cccc(/C=C2\SC(=S)N(CCCC(=O)NC3=NCCS3)C2=O)c1	.	.	-2%	0%	.	.	6%	-15%
CC(=O)Nc1ccc(NC(=O)CSc2nc3c([nH]c4ccccc43)c(=O)n2-c2ccccc2F)cc1	.	?	-2%	-5%	.	2%	-5%	-28%
Cc1ccc(C(=O)N2CCCC(Nc3cccc(F)c3)C2)cc1N1CCNC1=O (centres undefined)	.	12%	-3%	7%	.	-1%	9%	-11%
O=C(NNC(=O)c1ccccc1F)c1cccs1	.	?	-1%	4%	.	-3%	8%	54%[activator]
CCOc1ccccc1-n1c(SCC(=O)NC(C)(C)C)nnc1-c1ccoc1C	-0.7%	9%	-5%	4%	-7%	0%	4%	-9%
Cc1nc(-c2ccccc2)cs1	3.2%	-10%	-6%	-1%	-1%	-21%	14%	10%
CC1=CC(=NNS(=O)(=O)c2ccc([N+](=O)[O-])cc2)CC(C)(C)C1	.	-24%[46.1 µM]	.	.	.	-3%[46.1 µM]	-7%	33%[activator]
Cc1ccc(CNC(=O)CCS(=O)(=O)c2cc(Br)cc3c2N(C(=O)C2CC2)CC3)o1	2.3%	0%&17%	2%	9%	4%	4%	-22%	-10%
Nc1nc(Nc2cccc(F)c2)nc(NCc2ccco2)c1[N+](=O)[O-]	.	?	-1%	-3%	.	?	-13%	?
O=C(CSCc1ccccc1)N1CCc2ccccc21	-1.2%	-19%	0%	-12%	-2%	?	-8%	5%
CN1CCN(C(CNC(=O)C(=O)NC2CCCCC2)c2ccc(F)cc2)CC1 (centres undefined)	.	-16%	0%	.	.	1%	-9%	-17%
